# High-throughput results from PubChem BioAssay.
# AF4-AF9 inh: MLL-AF4/AF9 protein interaction inhibition; P42568; AlphaScreen, biotin-AF4 peptide binding to FLAG-AF9; inhibition, % at 10 µM; 350,000 compounds, 0.47% hits; AID 651704;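 active means every replicate reaching a set inhibition limit, whatever the replicate mean, cut at about 25% in these data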;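 further: 0% = plate neutral control median and 100% = total signal loss; the record names both 10 and 1 µM as test concentration; the first replicate is given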
# Target sequence (P42568 whole entry, looked up): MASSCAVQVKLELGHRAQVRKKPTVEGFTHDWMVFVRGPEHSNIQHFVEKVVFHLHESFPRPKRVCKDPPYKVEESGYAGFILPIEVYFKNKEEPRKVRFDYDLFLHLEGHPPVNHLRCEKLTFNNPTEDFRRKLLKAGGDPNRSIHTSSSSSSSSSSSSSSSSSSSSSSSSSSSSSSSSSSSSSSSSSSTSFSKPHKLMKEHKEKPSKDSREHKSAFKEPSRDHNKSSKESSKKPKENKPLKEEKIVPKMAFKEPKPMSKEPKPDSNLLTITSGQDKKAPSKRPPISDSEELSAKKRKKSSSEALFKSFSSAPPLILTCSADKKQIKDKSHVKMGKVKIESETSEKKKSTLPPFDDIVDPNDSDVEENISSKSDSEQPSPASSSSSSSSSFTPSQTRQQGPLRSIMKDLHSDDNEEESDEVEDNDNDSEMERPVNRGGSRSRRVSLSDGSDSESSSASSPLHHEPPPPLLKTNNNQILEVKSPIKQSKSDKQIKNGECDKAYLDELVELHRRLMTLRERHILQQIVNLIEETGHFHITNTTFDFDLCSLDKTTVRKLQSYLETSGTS
# FGF22 binding: binders of recombinant human FGF22 by thermal shift | Q9HCT0 | SYPRO orange fluorescence; percent of sucrose octasulfate shift, DMSO zero | calls only at 9.99 µM | 340,000 compounds, 1.5% hits | AID 651658;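 active means melting point raised past a set limit in the mean and every replicate; three in four hits are not shown here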
# Target sequence (Q9HCT0 whole entry, looked up): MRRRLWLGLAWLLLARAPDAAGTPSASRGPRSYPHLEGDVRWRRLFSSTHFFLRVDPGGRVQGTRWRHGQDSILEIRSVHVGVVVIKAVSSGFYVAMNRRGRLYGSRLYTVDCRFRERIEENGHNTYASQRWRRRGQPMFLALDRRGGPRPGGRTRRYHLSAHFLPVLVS
# * marks the source's active call; other numbers are inactive results; i = inactive.
AF4-AF9 inh	FGF22 binding	smiles
0.8	i	O=C(Nc1cc(F)ccc1F)N1CCCCN2[C@H](C1)[C@H](c1ccc(C3=CCCCC3)cc1)[C@@H]2CO
-5.2	i	C[C@@H]1CN([C@H](C)CO)C(=O)Cc2cc(NC(=O)c3ccncc3)ccc2O[C@H]1CN(C)CC1CC1
-0.7	i	COc1cccc(-c2ccc3c(c2)O[C@@H](CN(C)C(=O)C2CCC2)[C@H](C)CN([C@H](C)CO)S3(=O)=O)c1
-1.6	i	CC(C)NC(=O)Nc1ccc2c(c1)C(=O)N([C@@H](C)CO)C[C@H](C)[C@@H](CN(C)Cc1ccncc1)O2
-6.0	i	CN(C)C(=O)[C@@H]1[C@@H](CO)[C@@H]2Cn3c(ccc(-c4cccc(F)c4)c3=O)[C@@H]2N1C(=O)c1cnccn1
-1.4	i	COc1ccc(S(=O)(=O)Nc2ccc3c(c2)C(=O)N([C@H](C)CO)C[C@H](C)[C@H](CN(C)C(=O)c2ccncc2)OCCCC[C@H](C)O3)cc1
-0.2	i	COc1ccc(S(=O)(=O)Nc2ccc3c(c2)CC(=O)N([C@H](C)CO)C[C@H](C)[C@@H](CN(C)S(=O)(=O)c2ccc(C)cc2)O3)cc1
-16.4	i	O=C([C@H]1N[C@H]2c3ccc(-c4ccc(F)cc4)c(=O)n3C[C@H]2[C@@H]1CO)N1CCc2ccccc2C1
-0.5	i	C[C@@H]1CN([C@@H](C)CO)C(=O)c2cc(NS(=O)(=O)c3ccc(Cl)cc3)ccc2O[C@@H]1CN(C)Cc1ccc(C(=O)Nc2ccccc2N)cc1
1.1	i	Cc1noc(C)c1NC(=O)N(C)C[C@@H]1Oc2ccc(NC(=O)CCCCCC(=O)Nc3ccccc3N)cc2C(=O)N([C@H](C)CO)C[C@@H]1C
-1.8	i	Cc1ccc(S(=O)(=O)Nc2ccc3c(c2)C(=O)N([C@H](C)CO)C[C@H](C)[C@H](CN(C)C(=O)NC(C)C)O3)cc1
0.2	i	C[C@H]1CN([C@@H](C)CO)C(=O)c2cccc(NC(=O)CCCCCC(=O)Nc3ccccc3N)c2O[C@@H]1CN(C)S(=O)(=O)c1cn(C)cn1
0.8	i	COc1ccc2c3c(n(C)c2c1)[C@H](CO)N(C(=O)Cc1ccccc1)CC31CCN(C(=O)Cc2ccccc2)CC1
3.6	i	C[C@@H]1CN([C@@H](C)CO)S(=O)(=O)c2ccc(Br)cc2O[C@H]1CN(C)S(=O)(=O)c1ccccc1
-1.3	i	CC(C)NC(=O)Nc1ccc2c(c1)C(=O)N([C@@H](C)CO)C[C@@H](C)[C@H](CN(C)S(=O)(=O)c1cn(C)cn1)OCCCC[C@@H](C)O2
1.8	i	COc1ccc(S(=O)(=O)Nc2ccc3c(c2)C(=O)N([C@@H](C)CO)C[C@@H](C)[C@H](CN(C)S(=O)(=O)c2c(C)noc2C)OCCCC[C@@H](C)O3)cc1
0.6	i	N#C[C@@H]1[C@@H](c2ccc(C#CCC3CCCC3)cc2)[C@H](CO)N1C(=O)c1ccccn1
0.0	i	CO[C@H]1CN(C)C(=O)c2cc(NC(=O)C3CC3)ccc2OC[C@H](C)N(Cc2ccncc2)C[C@H]1C
-1.2	i	Cc1ccc(S(=O)(=O)N(C)C[C@@H]2Oc3c(cccc3N(C)C)C(=O)N([C@@H](C)CO)C[C@H]2C)cc1
-5.0	i	COC(=O)[C@]12C[C@H](CC(=O)NCc3ccc(C)o3)C(=O)N(CCC3=CCCCC3)C1=C[C@H](COCc1ccccc1)O[C@@H]2C
-0.7	i	CCS(=O)(=O)Nc1ccc2c(c1)C(=O)N(C)C[C@@H](OC)[C@@H](C)CN(C(=O)CN(C)C)[C@H](C)CO2
-1.3	i	Cc1noc(C)c1NC(=O)N(C)C[C@@H]1Oc2ccc(NC(=O)Cc3ccccc3)cc2C(=O)N([C@H](C)CO)C[C@@H]1C
-4.3	i	C[C@@H]1CN([C@H](C)CO)C(=O)c2cc(C#CCc3ccccc3)cnc2O[C@H]1CN(C)C(=O)Cc1cccnc1
1.9	i	COC(=O)C[C@H]1C=C[C@H](N)[C@H](CO)O1
-1.3	i	CN(C)CCCNC(=O)C[C@@H]1CC[C@H](NC(=O)c2ccccc2F)[C@@H](CO)O1
-0.1	i	O=C(NCc1ccccc1F)[C@@H]1[C@@H](CO)[C@@H]2Cn3c(cccc3=O)[C@@H]2N1CC1CC1
1.0	i	COc1cccc(S(=O)(=O)Nc2ccc3c(c2)[C@@H]2C[C@H](CC(=O)NCC(F)(F)F)O[C@@H](CO)[C@@H]2O3)c1
1.9	i	C[C@H](CO)N1C[C@H](C)[C@@H](CN(C)C(=O)Nc2ccc3c(c2)OCO3)Oc2c(NC(=O)CCCCCC(=O)Nc3ccccc3N)cccc2C1=O
-5.1	i	CCC(=O)N1[C@H](CO)[C@@H](c2ccccc2)C12CN(C(=O)Nc1ccccc1F)C2
-1.9	i	CCCNC(=O)C[C@H]1CC[C@H]2[C@@H](COc3ccc(NC(=O)NCC)cc3C(=O)N2C)O1

# Record cards, from the list above.
# Cc1noc(C)c1NC(=O)N(C)C[C@@H]1Oc2ccc(NC(=O)Cc3ccccc3)cc2C(=O)N([C@H](C)CO)C[C@@H]1C across the screens: AF4-AF9 inh = -1.3; FGF22 binding = i
# CC(C)NC(=O)Nc1ccc2c(c1)C(=O)N([C@@H](C)CO)C[C@H](C)[C@@H](CN(C)Cc1ccncc1)O2 across the screens: AF4-AF9 inh = -1.6; FGF22 binding = i

# Going on with the list.
AF4-AF9 inh	FGF22 binding	smiles
1.1	i	COc1ccc(NC(=O)Nc2ccc3c(c2)CC(=O)N([C@@H](C)CO)C[C@@H](C)[C@@H](CN(C)C(=O)Nc2ccccc2)O3)cc1
1.3	i	COc1ccc(NC(=O)N(C)C[C@@H]2Oc3ccc(NC(=O)Nc4cccc5ccccc45)cc3CC(=O)N([C@H](C)CO)C[C@@H]2C)cc1
-0.5	i	Cc1ccc(S(=O)(=O)N(C)C[C@@H]2Oc3ccc(NC(=O)NC4CCCCC4)cc3C(=O)N([C@H](C)CO)C[C@@H]2C)cc1
-0.8	i	O=C(CCN1CCCCC1)NCC[C@@H]1CC[C@H](NC(=O)Nc2ccc(Cl)cc2)[C@H](CO)O1
1.7	i	C[C@@H]1CN([C@H](C)CO)C(=O)c2cc(NC(=O)Nc3ccc4c(c3)OCO4)ccc2O[C@@H]1CN(C)C
10.5	i	CNC[C@@H]1Oc2cc(C#Cc3ccc(OC)cc3)ccc2S(=O)(=O)N([C@H](C)CO)C[C@H]1C
0.9	i	CC(C)(C)[S@@](=O)N1Cc2cc(C(=O)NCc3ccncc3)nc(-c3cccc(-c4ccncc4)c3)c2[C@H]1CCO
8.1	i	C[C@@H]1CN([C@H](C)CO)C(=O)c2cc(C#CCN(C)C)cnc2O[C@H]1CN(C)Cc1ccccc1F
-1.9	i	C[C@H](CO)N1C[C@H](C)[C@H](CN(C)C)Oc2ncc(C#CC3(O)CCCC3)cc2C1=O
-1.0	i	CNC[C@H]1Oc2ccc(NC(=O)C3CCCCC3)cc2C(=O)N([C@H](C)CO)C[C@@H]1C
-2.5	i	COc1cccc(S(=O)(=O)N[C@@H]2CC[C@H](CC(=O)NCc3ccncc3)O[C@H]2CO)c1
1.0	i	Cc1nc2cc(Br)ccc2c(=O)n1Cc1cccc(O)c1
-1.7	i	COc1ccc(C(=O)Nc2ccc3c(c2)C(=O)N(C)C[C@H](OC)[C@H](C)CN[C@H](C)CO3)cc1
6.2	i	Cc1noc(C)c1S(=O)(=O)N(C)C[C@@H]1OCc2ccccc2-c2c(n(C)c3ccccc23)C(=O)N([C@H](C)CO)C[C@@H]1C
2.9	i	Cc1noc(C)c1S(=O)(=O)Nc1ccc2c(c1)C(=O)N([C@H](C)CO)C[C@H](C)[C@H](CN(C)Cc1ccc(C(F)(F)F)cc1)OCCCC[C@H](C)O2
-2.8	i	O=C(C[C@H]1CC[C@@H]2[C@H](COC[C@H](O)CN2S(=O)(=O)c2cccc(Cl)c2)O1)NCCCN1CCOCC1
5.9	i	COc1ccc(NC(=O)N(C)C[C@H]2Oc3c(NC(=O)CCCCCC(=O)Nc4ccccc4N)cccc3C(=O)N([C@H](C)CO)C[C@H]2C)cc1
1.5	i	CO[C@@H]1CC[C@@H]2CCN(C)C(=O)C[C@@H](c3ccccc3)CN(C)C(=O)c3cc(C#N)ccc3OC[C@H]1O2
-1.7	i	C[C@@H]1CN([C@H](C)CO)C(=O)c2cccc(NC(=O)C3CCCCC3)c2O[C@H]1CN(C)S(=O)(=O)c1ccc(F)cc1
1.2	i	COc1ccc(S(=O)(=O)Nc2ccc3c(c2)C(=O)N([C@@H](C)CO)C[C@H](C)[C@H](CN(C)C(=O)Nc2ccc(C(F)(F)F)cc2)OCCCC[C@@H](C)O3)cc1
0.3	i	COc1cccc(S(=O)(=O)Nc2ccc3c(c2)[C@@H]2C[C@@H](CC(=O)NC4CCCCC4)O[C@@H](CO)[C@@H]2O3)c1
-0.4	i	C[C@H](CO)N1C[C@H](C)[C@H](CN(C)S(=O)(=O)c2ccccc2F)Oc2cc(-c3ccccc3)ccc2S1(=O)=O
-1.8	i	CNC[C@H]1Oc2cc(C#CC(C)(C)O)ccc2S(=O)(=O)N([C@H](C)CO)C[C@H]1C
-8.9	i	C[C@H]1CN([C@@H](C)CO)C(=O)Cc2cc(NS(=O)(=O)c3ccccc3)ccc2O[C@@H]1CN(C)Cc1ccc(C(F)(F)F)cc1
1.2	i	CCCNC(=O)C[C@@H]1CC[C@H]2[C@@H](COc3ccc(NC(=O)c4ccc(C(F)(F)F)cc4)cc3C(=O)N2C)O1
-7.5	i	C[C@@H]1CN([C@@H](C)CO)C(=O)c2cc(NS(=O)(=O)c3ccccc3)ccc2O[C@@H](C)CCCCO[C@H]1CN(C)Cc1ccncc1
2.2	i	COCc1[nH]nc2c1C(c1cccc(C(F)(F)F)c1)NC2=O (stereo not given)
0.2	i	CC(=O)N(C)C[C@@H]1Oc2cc(C#Cc3cccnc3)ccc2S(=O)(=O)N([C@@H](C)CO)C[C@@H]1C
-1.6	i	C[C@@H](O)C#Cc1cnc2c(c1)C(=O)N([C@@H](C)CO)C[C@H](C)[C@@H](CN(C)CC1CCOCC1)O2
2.2	i	COC(=O)C[C@H]1C[C@@H]2c3cc(NC(=O)Nc4ccccc4)ccc3O[C@@H]2[C@H](CO)O1
-1.7	i	CC(C)C(=O)Nc1ccc2c(c1)C(=O)N(C)[C@@H]1CC[C@@H](CC(=O)O)O[C@H]1CO2
-1.1	i	Cc1ccc(S(=O)(=O)Nc2ccc3c(c2)C(=O)N([C@@H](C)CO)C[C@H](C)[C@H](CN(C)C(=O)Nc2c(C)noc2C)O3)cc1
-0.7	i	C[C@H]1CN([C@@H](C)CO)S(=O)(=O)c2ccc(C3=CCCC3)cc2O[C@@H]1CN(C)S(=O)(=O)c1cn(C)cn1
0.1	i	CN1C(=O)c2cc(NC(=O)c3cnccn3)ccc2OC[C@@H]2O[C@H](CC(=O)NCC3CCCCC3)CC[C@@H]21
-2.3	i	C/C=C/c1ccc2c(c1)O[C@@H](CN(C)C(C)=O)[C@@H](C)CN([C@H](C)CO)S2(=O)=O
-2.2	i	CO[C@@H]1CN(C)C(=O)c2ccc(NC(=O)C3CCOCC3)cc2OC[C@@H](C)N(CC2CCOCC2)C[C@H]1C
-2.7	i	C[C@@H]1CN([C@@H](C)CO)C(=O)c2cc(NC(=O)c3ccccc3)ccc2O[C@@H](C)CCCCO[C@@H]1CN(C)S(=O)(=O)c1cn(C)cn1
14.1	i	O=C(NCC[C@H]1CC[C@@H](NC(=O)C2CC2)[C@H](CO)O1)Nc1ccc(C(F)(F)F)cc1
0.7	i	COc1cccc(NC(=O)N[C@@H]2C=C[C@@H](CC(=O)Nc3ccc(-c4ccccc4)cc3)O[C@@H]2CO)c1
0.9	i	CCCN1C[C@@H](C)[C@H](OC)CN(C)C(=O)c2ccc(NC(=O)c3cccc(OC)c3)cc2OC[C@H]1C
-2.6	i	C[C@H](O)C#Cc1ccc([C@@H]2[C@@H](CO)N3CCCCN(C(=O)c4ccncc4)C[C@H]23)cc1
-1.8	i	CO[C@@H]1CN(C)C(=O)c2ccc(NS(C)(=O)=O)cc2OC[C@@H](C)N(C(=O)CN(C)C)C[C@@H]1C
0.1	i	N#C[C@@H]1[C@H](c2ccc(-c3cccc(F)c3)cc2)[C@@H](CO)N1S(=O)(=O)c1cccc(F)c1
-1.4	i	C[C@H](O)C#Cc1ccc2c(c1)O[C@@H](CN(C)C(=O)Nc1ccccc1)[C@H](C)CN([C@@H](C)CO)S2(=O)=O
-0.7	i	C[C@@H]1CN([C@H](C)CO)C(=O)c2cc(C#C[C@@H](C)O)cnc2O[C@H]1CN(C)CC1CCOCC1
-3.0	i	CO[C@H]1CN(C)C(=O)c2ccc(NS(=O)(=O)CC(F)(F)F)cc2OC[C@H](C)N(Cc2cccnc2)C[C@@H]1C

# Reprinted at random: 5 entries already listed.
AF4-AF9 inh	FGF22 binding	smiles
-3.0	i	CO[C@H]1CN(C)C(=O)c2ccc(NS(=O)(=O)CC(F)(F)F)cc2OC[C@H](C)N(Cc2cccnc2)C[C@@H]1C
-1.4	i	C[C@H](O)C#Cc1ccc2c(c1)O[C@@H](CN(C)C(=O)Nc1ccccc1)[C@H](C)CN([C@@H](C)CO)S2(=O)=O
-2.6	i	C[C@H](O)C#Cc1ccc([C@@H]2[C@@H](CO)N3CCCCN(C(=O)c4ccncc4)C[C@H]23)cc1
0.1	i	N#C[C@@H]1[C@H](c2ccc(-c3cccc(F)c3)cc2)[C@@H](CO)N1S(=O)(=O)c1cccc(F)c1
-1.8	i	CO[C@@H]1CN(C)C(=O)c2ccc(NS(C)(=O)=O)cc2OC[C@@H](C)N(C(=O)CN(C)C)C[C@@H]1C

# The list is partial; the hit share may differ from the screen's.
